AF4-AF9 inh = MLL-AF4/AF9 protein interaction inhibition; P42568; AID 651704; 0.47% of 350,000 active; AlphaScreen, biotin-AF4 peptide binding to FLAG-AF9; inhibition, % at 10 µM;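 active = every replicate reaching a set inhibition limit, whatever the replicate mean, cut at about 25% in these data; inconclusive = mean inhibition reaches that limit but some replicates miss it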;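 also: 0% = plate neutral control median and 100% = total signal loss; the record names both 10 and 1 µM as test concentration; the first replicate is given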
Target sequence (P42568 whole entry, looked up): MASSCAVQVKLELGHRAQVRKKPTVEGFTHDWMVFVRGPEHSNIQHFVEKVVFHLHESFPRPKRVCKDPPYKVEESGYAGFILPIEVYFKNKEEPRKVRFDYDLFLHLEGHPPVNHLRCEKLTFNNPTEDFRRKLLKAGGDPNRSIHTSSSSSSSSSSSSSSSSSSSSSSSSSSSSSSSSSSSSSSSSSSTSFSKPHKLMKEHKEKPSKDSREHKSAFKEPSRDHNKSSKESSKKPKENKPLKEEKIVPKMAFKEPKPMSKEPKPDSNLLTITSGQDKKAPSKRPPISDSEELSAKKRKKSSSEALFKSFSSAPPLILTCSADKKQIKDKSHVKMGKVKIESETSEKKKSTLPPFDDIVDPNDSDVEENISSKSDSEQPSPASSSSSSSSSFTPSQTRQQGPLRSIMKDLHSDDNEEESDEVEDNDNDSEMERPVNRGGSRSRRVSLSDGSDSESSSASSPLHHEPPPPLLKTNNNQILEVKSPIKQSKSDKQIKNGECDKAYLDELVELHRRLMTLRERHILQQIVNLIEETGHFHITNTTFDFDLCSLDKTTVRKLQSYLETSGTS
Vif A3G = inhibitors of Vif binding to APOBEC3G peptide, primary screen, biochemical, TR-FRET, GST-Vif 1-94, biotin-A3G peptide, dose response retest (AID 1117319); TR-FRET GST-Vif / biotin-A3G peptide binding; higher % means a stronger effect; test concentration not given here; strong numbers were not always called active; inhibition, %; hits with a dose series show IC50 in µM; 0.57% of 260,000 active;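 active = above the screen mean plus three standard deviations and confirmed in dose response; inconclusive = results disagree or hit not tested in dose response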;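 also: Vif residues 1-94 fused to GST binding biotinylated APOBEC3G peptide 110-148; 0% = full assay without inhibitor and 100% = GST in place of GST-Vif; retest series ran down from 100 µM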
* = called active by the depositor; ? = inconclusive; & = joins results of further samples.

Preview (four entries):
Vif A3G,AF4-AF9 inh,smiles
-12%,-1.5,Cc1cc(C)nc(NC(N)=NCCc2ccccc2)n1
3%,-1.6,COC(=O)c1ccc(CNC(=O)c2ccccc2C(=O)NCC2(CBr)OCCO2)cc1
-21%,-0.7,NC(=O)C1CCCN(C(=O)c2ccc(S(=O)(=O)N3CCCCCC3)cc2)C1 (centres undefined)
-6%,0.8&0.7,COc1ccc(S(=O)(=O)N(C)C[C@@H]2OCc3cnnn3CCCC(=O)N([C@H](C)CO)C[C@H]2C)cc1

The listing, repeating the preview:
Vif A3G,AF4-AF9 inh,smiles
-12%,-1.5,Cc1cc(C)nc(NC(N)=NCCc2ccccc2)n1
3%,-1.6,COC(=O)c1ccc(CNC(=O)c2ccccc2C(=O)NCC2(CBr)OCCO2)cc1
-21%,-0.7,NC(=O)C1CCCN(C(=O)c2ccc(S(=O)(=O)N3CCCCCC3)cc2)C1 (centres undefined)
-6%,0.8&0.7,COc1ccc(S(=O)(=O)N(C)C[C@@H]2OCc3cnnn3CCCC(=O)N([C@H](C)CO)C[C@H]2C)cc1
-4%,-16,O=C1OCCN1C(=O)[C@H]1[C@H](c2ccc(F)cc2)C(c2cccc(Cl)c2)=NN1c1ccc(Br)cc1
-2%,-0.3,O=C(OCc1cn([C@H]2CN(CC3CCCCC3)[C@@H](c3ccc(Cl)cc3)C[C@@H]2O)nn1)c1ccccc1
-1%,5.4&8.9,COc1ccc(CC(C)NCC(O)c2ccc(O)c(NC=O)c2)cc1 (centres undefined)
-5%,36*,Nc1ccc2ccccc2c1N=Nc1ccccc1
5%,-1.7,Cc1ccc(SCC(=O)NC(=O)NC2CCCC2)c(C)c1
14%,-1.9,Cc1c(/C(O)=C2\C(=O)C(=O)N(CCCN(C)C)C2c2ccccc2)cnn1-c1ccccc1 (centres undefined)
0%,3.4,CCOc1ccc(N2CC(C(=O)Nc3cccc(S(=O)(=O)N4CCOCC4)c3)CC2=O)cc1 (centres undefined)
-5%,-5.8,CN(C)c1ncnc2[nH]ncc12
-2%,3.2,N#Cc1c(N)n(C2OC(CO)C(O)C2O)c2ncnc(N)c12 (centres undefined)
3%,-1.1,Cc1cc(OCC(=O)OCC(=O)N2CCCCC2)ccc1Cl
10%,-15,CC(=O)N1CCN(S(=O)(=O)c2cccc(C(=O)OCc3ccc(C(C)(C)C)cc3)c2)CC1
-2%,-7.0,CC(=O)Nc1ccc(C=NNc2ccc([N+](=O)[O-])cn2)cc1
1.4µM*,-1.4,C[n+]1cccc2cccc([O-])c21
7%,-0.8,O=S(=O)(Nc1cccc(S(=O)(=O)N2CCCC2)c1)c1ccc(Br)cc1
6%,-4.1,Cc1ccc(S(=O)(=O)N(CCc2ccccc2)c2ccc3c(c2)C2CC3CCN2C(=O)OCc2ccccc2)cc1 (centres undefined)
-7%,-6.5,O=C(CCSCCC(=O)NN=Cc1cccc(Cl)c1)NN=Cc1cccc(Cl)c1
-4%,9.1,CSc1ccc(NC(=O)NN(c2ccccc2)C2CCS(=O)(=O)C2)cc1 (centres undefined)
-6%,7.0,Cn1c(=O)c2[nH]c(CCCCCCCCc3nc4ccccc4[nH]3)nc2n(C)c1=O
12%,0.2,O=C1CSC(=S)N1N=Cc1ccc(Cl)s1
-3%,-0.6,CCOC(=O)C1=CN(Cc2cccc(F)c2)S(=O)(=O)N(CC)C1c1ccc(C(F)(F)F)cc1 (centres undefined)
1%,-6.6,CCCC(=O)Nc1ccc2c(c1)nc(CCN1CCC(C)CC1)n2C

In another format: five of the compounds above
Order of values – Vif A3G, AF4-AF9 inh
O=C(OCc1cn([C@H]2CN(CC3CCCCC3)[C@@H](c3ccc(Cl)cc3)C[C@@H]2O)nn1)c1ccccc1
 : -2%, -0.3
CCOc1ccc(N2CC(C(=O)Nc3cccc(S(=O)(=O)N4CCOCC4)c3)CC2=O)cc1 (centres undefined)
 : 0%, 3.4
Cc1ccc(S(=O)(=O)N(CCc2ccccc2)c2ccc3c(c2)C2CC3CCN2C(=O)OCc2ccccc2)cc1 (centres undefined)
 : 6%, -4.1
C[n+]1cccc2cccc([O-])c21
 : 1.4µM*, -1.4
CC(=O)N1CCN(S(=O)(=O)c2cccc(C(=O)OCc3ccc(C(C)(C)C)cc3)c2)CC1
 : 10%, -15

New compounds follow:
Vif A3G,AF4-AF9 inh,smiles
-2%,-1.6,Cc1ccc(S(=O)(=O)N2CC3(O)CN(C(=O)OC(C)C)N(C(=O)OC(C)C)CC3(OC(=O)NC3CCCC3)C2)cc1 (centres undefined)
19%,-1.2,NS(=O)(=O)c1ccc(NC(=O)CN2CCN(S(=O)(=O)c3cccs3)CC2)cc1
-2%,-7.1,CCn1c(SCC(=O)NCCc2ccc(OC)c(OC)c2)nc2c([nH]c3ccccc32)c1=O
-7%,0.3,O=c1[nH]cc(NCc2ccccc2)c(=O)[nH]1
1%,-0.9,O=Cc1ccc2c(c1)OCCOCCOCCOCCO2
-1%,1.4,CC1(c2ccc3c(c2)OCO3)NC(=O)N(CC(=O)Nc2ccccc2)C1=O (centres undefined)
-7%,1.9,COc1ccc(CN2CCN(C(=O)c3ccc(S(=O)(=O)N4CCCCCC4)cc3)CC2)cc1F
0%,1.3,Cc1ccc(C(=O)NCC(=O)NCC(c2ccco2)N2CCCCC2)cc1C (centres undefined)
1%,-11,C(=NOCCc1ccccc1)c1ccncc1
-34%,0.6,O=C(NCc1ccc(F)cc1)c1cc(-c2ccccn2)nc2ccc(S(=O)(=O)N3CCOCC3)cc12
2%,1.1,Cc1ccc(NC2(C#N)CCCC2)cc1
-3%,-2.1,Cn1c(=O)c2[nH]c(NN=Cc3cccc(Br)c3)nc2n(C)c1=O
2%,-0.8,CN(C1CCCCC1)S(=O)(=O)c1ccc2c(c1)CCC(=O)N2
-8%,-9.7&-5.3&-0.5,C[C@@H]1CCCCO[C@@H](CN(C)S(=O)(=O)c2cn(C)cn2)[C@@H](C)CN([C@H](C)CO)C(=O)c2cc(N(C)C)ccc2O1
-4%,-2.4&-1.9,C[C@H]1CN([C@@H](C)CO)C(=O)c2cc(Br)cnc2O[C@H]1CN(C)Cc1ccccc1C(=O)O
6%,4.2,CSc1ncnc2c1ncn2CCCNC1CCN(Cc2ccccc2)CC1
-3%,1.6,COc1ccc(NC(=O)C[C@H]2C(=O)N(Cc3ccccc3)C[C@@H]2CSC)cc1
-3%,-7.0,O=C(CC(=O)c1ccccc1)CS(=O)(=O)c1ccccc1
-6%,11,O=C(CCl)N1c2ccccc2Sc2c1ccc1ccccc21
0%,-7.4,COc1ccc(-c2nc(S(=O)(=O)c3ccccc3)c(N3CCCC3)o2)cc1
-3%,0.4,Cc1ccc(S(=O)(=O)Nc2ccccc2N=Cc2c(F)c(F)c(F)c(F)c2F)cc1
-4%,0.9,Cc1cn([C@H]2C[C@H](O)[C@@H](CCC(=O)NCc3ccc(N(C)C)cc3)O2)c(=O)[nH]c1=O
-3%,0.9,CCn1nnc2cc(C(=O)N(CCOC)CC(=O)Nc3cccc(C)c3C)ccc21
-6%,-2.7,O=C(NN=Cc1ccccc1)NN=Cc1ccccc1
6%,2.0,O=C(CCNC(=O)c1ccc([N+](=O)[O-])cc1)Nc1cc(C(F)(F)F)ccc1N1CCOCC1

(continued)
Vif A3G,AF4-AF9 inh,smiles
-5%,2.7,O=C(c1ccc2c(c1)CCC2)N1CCN(Cc2c(F)cccc2Cl)CC1
4%,0.3,CCOC(=O)c1cnc[nH]c1=O
5%,2.1,Cc1cc(-c2ccc(NS(=O)(=O)c3ccccc3)c(C)c2)ccc1NS(=O)(=O)c1ccccc1
-2%,0.0,Cc1ccc(S(=O)(=O)N2CCOCC2)cc1NC(=O)COC(=O)COc1ccc(C#N)cc1
-2%,-0.3,COC(=O)C1CCN(C(=O)CSc2nc3nc(C)cc(C)n3n2)CC1
2%,-0.6&1.9,C[C@H]1CN([C@@H](C)CO)S(=O)(=O)c2ccc(Br)cc2O[C@H]1CN(C)C(=O)NC1CCCCC1
-9%,-0.6,CC1(C)N=C(N)N=C(N)N1CCCCc1ccccc1
9%,3.5,CCOC(=O)c1c(-c2ccccc2)c[nH]c1C
3%,-6.5,CCCCCCn1c(=O)n2n(c1=O)C[C@]1(OC(=O)NCc3ccccc3F)CN(S(=O)(=O)c3ccc(C)cc3)C[C@]1(O)C2
-5%,0.9,O=c1[nH]cc(S(=O)(=O)N2CCN(c3ccccc3F)CC2)c(=O)[nH]1
-4%,0.8,O=C(OCc1ccccc1)N1CCC2CC1c1cc(N3CCN(S(=O)(=O)c4cc(Cl)cc(Cl)c4)CC3)ccc12 (centres undefined)
-2%,-1.1,COc1ccc(-c2oc3cc(O)c(OC)c(O)c3c(=O)c2OC)cc1O
2%,-3.6&-0.9,C[C@@H]1CN([C@H](C)CO)C(=O)CCCn2nncc2CO[C@H]1CN(C)C(=O)C1CC1
-5%,0.5,CCOC(=O)C1=CN(Cc2cccc(F)c2)S(=O)(=O)N(CC)C1c1ccc(F)c(Cl)c1 (centres undefined)
-10%,-2.2,Cc1ccc(S(=O)(=O)N2CCOCC2)cc1NC(=O)CSc1nc(N)cc(N)n1
-3%,6.1,NC(=S)NN=Cc1cc(-c2cccc(N)c2)ccn1
0%,3.7,CCC(NC(=O)CNC(=O)c1ccc2c(c1)OCO2)c1ccc(Br)cc1 (centres undefined)
-9%,1.0,C[C@H](O)[C@@H]1C(=O)N2CCc3ccc(N4CCOCC4)cc3[C@@H]2C[C@@H]1N(C)S(=O)(=O)c1ccccc1
-7%,1.1,Cc1c(N=O)c(-c2ccccc2)n(O)[n+]1[O-]
-1%,-3.9,CC(C)(C)C(=O)C(C(c1ccccc1)N1CCOCC1)N1CCOCC1 (centres undefined)
-2%,-2.9,O=C(Cn1cnc2c(NCc3ccccc3)ncnc21)NCCCc1ccccc1
-6%,0.5,Nc1ncnc2c1CN(Cc1ccccc1)CC2
-1%,4.1,O=C(Cc1ccccc1[N+](=O)[O-])NCC1(c2cccc3c2OCO3)OCCO1
4%,-2.2,COC(=O)C1OC1c1cc([N+](=O)[O-])ccc1OC (centres undefined)
-2%,1.2,Oc1ccc(-c2nc3ccccc3nc2-c2ccc(O)cc2O)c(O)c1

The results go on:
Vif A3G,AF4-AF9 inh,smiles
-8%,3.6,O=C(NC(=S)NCc1ccc(Cl)cc1Cl)c1ccco1
-3%,1.4,CN(C(=O)c1cccc(NC(=O)Cc2ccc(NC(=O)C3CCN(C(=O)c4ccccc4)CC3)cc2)c1)C1CC1
-7%,2.7,Cc1ccc(S(=O)(=O)N2C[C@@H](C)[C@]3(C2)[C@H](O)[C@H](OC(=O)NC2CCCC2)C[C@H]2C(=O)N(c4ccccc4)C(=O)[C@H]23)cc1
-2%,0.2,COC(=O)c1cccc(NC(=O)c2ccc(S(=O)(=O)N(C)c3ccccc3OC)cc2)c1
?,-2.8,CCOP(=O)(C1=C(O)C(=O)C(C(C)(C)C)=CC1=O)c1ccccc1 (centres undefined)
-2%,1.0,COC(=O)[C@]1(Cc2ccccc2)N[C@H](CN(C)C(=O)NC(C)C)[C@@H]2C(=O)N(C)C(=O)[C@@H]21
-4%,-1.8,CCC/C=C/c1ccc(CN2C(CC(C)C)C(=O)N(Cc3cn(CC4CCCCC4)nn3)CCS2(=O)=O)cc1 (centres undefined)
-6%,-2.3,O=c1ccc(S(=O)(=O)N2CCCC2)cn1Cc1nc(-c2ccccc2)no1
-5%,5.0,CN(C)c1ccc(C(O)c2cc3ccccc3s2)cc1 (centres undefined)
0%,0.8,COc1ccc(N(CC(=O)NC2CCS(=O)(=O)C2)S(=O)(=O)c2ccc(Cl)c(Cl)c2)cc1 (centres undefined)
-2%,0.0,C=CCCC(=O)N1C[C@H]2CON(C)[C@H]2C[C@H]1c1cccc(N2CCOCC2)c1
-3%,-5.6,CC(C)(C)OC(=O)N(Cc1ccccc1)Cc1ccccc1OCc1ccc(NC(=O)C2CCC2)cc1
-1%,9.1,CCC1(c2ccccc2)SCC(c2ccccc2)=NC1=O (centres undefined)
0%,5.6,COc1ccc(CN(C)C(=O)c2cc(-c3ccccc3)nc3ccc(C)cc23)c(OC)c1
0%,-4.8,CN(CC(=O)Nc1ccc(Cl)c(Cl)c1)CC(=O)N1CCc2ccccc21
10%,-28,COc1ccc(C(CNc2ccc(S(=O)(=O)N3CCN(C)CC3)cc2[N+](=O)[O-])N(C)C)cc1 (centres undefined)
5%,-1.1,CN(Cc1cnc2nc(N)nc(N)c2n1)c1ccc(C(=O)NC(CCC(=O)O)C(=O)O)c2ccccc12 (centres undefined)
-2%,11,O=C(Cc1ccccc1[N+](=O)[O-])NCC(O)c1ccc2c(c1)OCO2 (centres undefined)
1%,3.6,COc1ccc2[nH]c3c(c2c1)CCN1C(=O)C(CC(=O)NC/C=C(\C)CCC=C(C)C)C[C@H](C(=O)N(C(C)C)C(C)C)[C@@]31C (some centres undefined)

Assay outcomes: PubChem, several laboratories

This is a subset; rates above refer to the full screens.
